Screening data: PubChem BioAssay, National Center for Advancing Translational Sciences (NCATS)
gsp ag: agonists of gsp mutant (McCune-Albright syndrome) | gsp mutant cells, cAMP HTRF, 30 min; control for the full effect not named in the record | Potency, µM (top dose mostly 76.9 µM), inactives show top-dose activation (cAMP increase), usual class: activators | 340,000 tested, 0.13% active; active = well fitted activation curve with a large enough effect; inconclusive = small, poorly fitted or top-dose-only effect, or another doubt; inactive = no such curve, though single readings can be large or run the other way; cell line not stated here;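 further: phosphodiesterase inhibitor Ro 20-1724 added with compounds to block cAMP breakdown; potency means the concentration at half of the fitted maximal effect; nearly all actives have a fitted effect of over 60% in size; about a fifth of the inactives were tested at one dose only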
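Cells stably selected in G418 were plated at 2000/well, grown 16-24 hr, then given compounds in DMSO with the PDE inhibitor […] (300 uM solution added) for 30 min at 37C; cAMP was read by HTRF.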
D2 PAM: human D2 receptor positive allosteric modulation; P14416; DiscoveRx D2 beta-arrestin cells, luminescence, 90 min; 100% = 57 uM dopamine signal; potentiation, % (test concentration not listed); 360,000 tested, 0.23% active; AID 624464; active = potentiation of 50% or more; inconclusive = 30% to 50%; inactive = 30% or less;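 further: compound concentration not given in the record; tested on top of an EC20 dose of dopamine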
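D2 cells co-treated with compound plus 50 nM dopamine (EC20) for 90 min at 37 deg C to detect potentiation. Beta-arrestin recruitment was read as enzyme-fragment luminescence after 1 h at ambient temperature. Full response was set by 57 uM dopamine.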
CtBP-E1A blk: blocks the CtBP interaction with E1A | 340,000 tested, 0.49% active | activity change, % (no concentration beside the values) | AlphaScreen GST-E1A/His-CtBP binding, 1536-well; active compounds read low; control for the full effect not named in the record | AID 651724; in the data active means activity change below about -65%; inconclusive means about -30% to -65%; inactive means above about -30%; further: on the % scale 0 is the no-effect control and ±100 the full control effect
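In 5 uL wells, 23 nL compound meets equimolar GST-E1A and His-CtBP (5X stock 125 nM each) for 2 h, 37 °C. Beads (5X, 50 ug/mL) then 1 h, 37 °C, dark.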
gsp antag: antagonists of gsp mutant (McCune-Albright syndrome). gsp-mutant cells, cAMP HTRF, 30 min; control for the full effect not named in the record. Potency, µM (highest dose often 76.9 µM), inactives show at the highest dose activity change, negative = inhibition, actives largely listed as inhibitors. 340,000 tested, 0.4% active; active = falling curve of any shape with a large fitted effect; inconclusive = falling curve, mostly with a smaller effect; inactive = flat or rising curve; cell line not stated here;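 further: intracellular cAMP measured with PDE inhibitor Ro 20-1724 present during compound exposure; potency means the concentration at half of the fitted maximal effect; on the % scale 0 is the no-effect control and ±100 the full control effect; nearly all actives have a fitted effect of over 65% in size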
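HTRF cAMP measurement after 30 min RT detection following 30 min, 37C compound treatment alongside […] (added as 300 uM solution) in G418-selected cells seeded at 2000/well and grown 16–24 h.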
Six1-Eya2 blk: Six1/Eya2 interaction inhibition | AID 651725 | activity change, % (test concentration not listed) | AlphaScreen GST-Six1/His-Eya2 binding, biochemical; active compounds read low; control for the full effect not named in the record | Q15475+O00167 | 360,000 tested, 0.56% active; in the data active = activity change below about -65%; inconclusive = about -30% to -65%; inactive = above about -30%; further: on the % scale 0 is the no-effect control and ±100 the full control effect
Target sequence (O00167 whole entry, looked up): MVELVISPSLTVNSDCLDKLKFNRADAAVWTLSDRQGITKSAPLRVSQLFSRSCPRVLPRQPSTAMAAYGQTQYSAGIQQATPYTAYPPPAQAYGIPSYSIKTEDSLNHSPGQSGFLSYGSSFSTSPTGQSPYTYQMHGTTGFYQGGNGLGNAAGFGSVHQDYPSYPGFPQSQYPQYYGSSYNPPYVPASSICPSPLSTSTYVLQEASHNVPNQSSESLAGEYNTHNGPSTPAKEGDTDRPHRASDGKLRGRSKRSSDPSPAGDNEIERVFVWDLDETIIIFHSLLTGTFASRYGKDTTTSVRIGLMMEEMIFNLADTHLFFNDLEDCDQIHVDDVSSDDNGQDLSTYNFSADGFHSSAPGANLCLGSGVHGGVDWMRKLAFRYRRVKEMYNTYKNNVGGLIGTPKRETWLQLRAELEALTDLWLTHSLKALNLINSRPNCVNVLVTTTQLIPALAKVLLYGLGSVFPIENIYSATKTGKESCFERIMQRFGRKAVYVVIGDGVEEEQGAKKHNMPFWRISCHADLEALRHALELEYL
Target sequence (Q15475 whole entry, looked up): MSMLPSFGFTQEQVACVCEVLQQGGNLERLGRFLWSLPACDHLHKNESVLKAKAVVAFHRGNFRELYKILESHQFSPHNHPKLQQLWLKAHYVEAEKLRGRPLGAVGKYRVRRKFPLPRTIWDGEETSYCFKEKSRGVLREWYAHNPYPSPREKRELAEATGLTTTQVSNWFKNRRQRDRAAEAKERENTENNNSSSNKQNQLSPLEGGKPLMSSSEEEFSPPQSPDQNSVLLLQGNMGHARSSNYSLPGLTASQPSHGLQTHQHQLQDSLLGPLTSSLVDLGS
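AlphaScreen with GST-Six1 and His-Eya2 (5X mix: 250 nM and 500 nM), glutathione donor and nickel acceptor beads; buffer 50 mM Tris pH 8.0, 300 mM NaCl, 1 mM TCEP; 1 h at 37 C in the dark.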
D2 ag: activates the human D2 dopamine receptor. AID 624465. 360,000 tested, 0.084% active. DiscoveRx PathHunter D2 beta-arrestin, luminescence, 90 min; 100% = 57 uM dopamine signal. P14416. activation, % (no concentration beside the values); in the data active = activation above about 40%; inconclusive = about 15% to 40%; inactive = below about 15%; further: compound concentration not given in the record; the text of the record calls up to 30% inactive
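Agonist mode: compounds alone added to overnight-plated D2 PathHunter cells for 90 min at 37 C, with 57 uM final dopamine (EC100) defining full response. Beta-arrestin recruitment detected by chemiluminescent reagent, read after 1 h at ambient temperature.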
Starred values were filed as active, the others as inactive; ? = inconclusive; nt = not tested or not shown; [ ] = another dose, or the depositor's remark.

Values in the order: gsp ag	D2 PAM	CtBP-E1A blk	gsp antag	Six1-Eya2 blk	D2 ag
- Brc1ccc2c(c1)OCCOCCOCCOCCOCCOCCO2
→ -10%	8	-17	10%	6	-2.1
- CCOC(=O)c1[nH]c(COC(=O)CCCOc2ccccc2)c(C(=O)OCC)c1C
→ -35%[inhibitor]	23	8	0%	3	-3.8
- O=C(/C=C/c1c[nH]c2ccccc12)c1cccc2ccccc12
→ 26%	-12	-5	12%	-14	-1.7
- O=C(C/C=N/OCc1ccc(Cl)cc1)c1cnc(-c2ccccc2)s1
→ 1%	-6	6	4%	27	-0.8
- CCOC(=O)c1c(C2CC2)csc1NC(=O)COC(=O)CCS(=O)(=O)c1ccc(C)cc1
→ 17%[15.4 µM]	-7	3	-6%	7	-3.4
- O=C(COC(=O)CNS(=O)(=O)c1cccc(Br)c1)NC(=O)Nc1ccc2c(c1)OCCO2
→ 2%	-18	-1	-13%	-5	-1.6
- O=C(CN1C(=O)c2ccccc2C1=O)NC1CCCCCC1
→ 27%	-1	13	2%	1	-2.9
- O=C(N/N=C/c1ccc2c(c1)OCO2)c1ccc(Br)o1
→ 22%	-29	-10	-23%	-10	-0.8
- COCc1cc(C)nc(OCC(=O)N/N=C/c2ccc(C)cc2)c1C#N
→ -7%	10	nt	2%	7	-1.4
- O=C(NC1CCCC1)C1CC(O)CN1C(=O)Nc1ccccc1 (configuration not stated)
→ -49%[inhibitor]	-2	13	2%	-1	0.0
- CSc1nc2c(c(=O)[nH]1)C(c1cccc(Cl)c1Cl)CC(=O)N2 (configuration not stated)
→ -7%[15.4 µM]	-4	nt	-13%	8	-0.5
- CCN(CC)c1ccc(N2C(=O)/C(=C/c3cccs3)SC2=S)cc1
→ -27%	-6	-17	-1%	-5	0.7
- N=c1c(S(=O)(=O)c2ccc(Br)cc2)cc2c(=O)n3ccccc3nc2n1CCN1CCOCC1
→ 4%	-1	-6	-3%	-4	0.1
- CC(=O)C1=C(O)C(=O)N(CCc2c[nH]c3ccccc23)C1c1ccc(C)cc1 (configuration not stated)
→ ?	-6	nt	-1%	6	-4.3
- Cc1c(/C=N/N2C(=O)C3C4C=CC(C4)C3C2=O)c2ccccc2n1C (configuration not stated)
→ ?	3	8	3%	2	-4.9
- Cc1cccc(NC(=O)c2ncn3c2C(=O)N[C@H](C)C3)c1
→ nt	-6	-12	nt	-4	6.3
- O=C(NC1CCCCC1)N(CCN1CCCC1)Cc1cc2cc3c(cc2[nH]c1=O)OCCO3
→ -14%	-7	3	9%	0	0.1
- COCCNC(=O)c1cc(-c2cccs2)on1
→ ?	-4	0	2%	-4	-1.0
- COc1cc(CN2CCC(C(=O)NC3CCCC3)CC2)cc(OC)c1O
→ 9%	4	4	12%	4	-0.4
- Cc1cc(=O)n2nc(N3CCCC(C(=O)NCCc4ccc(Cl)cc4)C3)sc2n1 (configuration not stated)
→ 6%	-7	nt	-9%	0	-2.6
- Cc1ccc(NC(=O)CSc2sc3c(O)cc(=O)[nH]c3c2C#N)cc1C
→ 1%	-3	2	2%	-12	2.1
- O=C(c1cc2cc(Br)ccc2oc1=O)N1CCCC1
→ -32%[inhibitor]	1	7	19%	0	-0.2
- Cc1ccc(C)c(OCC(=O)OCc2csc(CC(=O)Nc3ccccc3C)n2)c1
→ -1%	-7	-1	nt	-6	-1.5
- CCCCN(CC)CCCNC(=O)c1cc2cc3ccc(C)cc3nc2o1
→ 8%	-8	-4	5%	-3	3.1
- O=C(O)CCCN1C(=O)C2C3c4ccccc4C(c4ccccc43)[C@@H]2C1=O (some centres not stated)
→ -2%	3	4	-5%	13	-1.3
- CCCN1/C(=C(\C#N)C2=NS(=O)(=O)c3ccccc32)N(C)c2ccccc21
→ 28%	3	1	-10%	2	-3.6
- CCOc1ccc(NC(=S)NCc2ccco2)cc1
→ ?	-6	-5	14%	-1	2.7
- Cc1noc(/C=C/c2cccnc2)c1[N+](=O)[O-]
→ 31%	2	6	3%	2	11
- OC(CNCCC1C=Nc2ccccc21)Cn1c2ccc(Cl)cc2c2cc(Cl)ccc21 (configuration not stated)
→ -6%	4	-12	12%	-5	-3.6
- COc1ccc(/C=N/NC(=O)c2ccc[nH]2)cc1
→ 1%	-1	0	1%	-4	0.0

A run of entries from the list above:
Values in the order: gsp ag	D2 PAM	CtBP-E1A blk	gsp antag	Six1-Eya2 blk	D2 ag
- O=C(NC1CCCCC1)N(CCN1CCCC1)Cc1cc2cc3c(cc2[nH]c1=O)OCCO3
→ -14%	-7	3	9%	0	0.1
- COCCNC(=O)c1cc(-c2cccs2)on1
→ ?	-4	0	2%	-4	-1.0
- COc1cc(CN2CCC(C(=O)NC3CCCC3)CC2)cc(OC)c1O
→ 9%	4	4	12%	4	-0.4
- Cc1cc(=O)n2nc(N3CCCC(C(=O)NCCc4ccc(Cl)cc4)C3)sc2n1 (configuration not stated)
→ 6%	-7	nt	-9%	0	-2.6
- Cc1ccc(NC(=O)CSc2sc3c(O)cc(=O)[nH]c3c2C#N)cc1C
→ 1%	-3	2	2%	-12	2.1
- O=C(c1cc2cc(Br)ccc2oc1=O)N1CCCC1
→ -32%[inhibitor]	1	7	19%	0	-0.2
- Cc1ccc(C)c(OCC(=O)OCc2csc(CC(=O)Nc3ccccc3C)n2)c1
→ -1%	-7	-1	nt	-6	-1.5
- CCCCN(CC)CCCNC(=O)c1cc2cc3ccc(C)cc3nc2o1
→ 8%	-8	-4	5%	-3	3.1
- O=C(O)CCCN1C(=O)C2C3c4ccccc4C(c4ccccc43)[C@@H]2C1=O (some centres not stated)
→ -2%	3	4	-5%	13	-1.3
- CCCN1/C(=C(\C#N)C2=NS(=O)(=O)c3ccccc32)N(C)c2ccccc21
→ 28%	3	1	-10%	2	-3.6

(further entries)
Values in the order: gsp ag	D2 PAM	CtBP-E1A blk	gsp antag	Six1-Eya2 blk	D2 ag
- COc1ccc(/C(C)=N/N=C(N)N)c(OC)c1
→ -15%	-15	3	14%	4	1.5
- CN(CC1CCOCC1)C(=O)CC1C(=O)NCCN1Cc1cccc(Oc2ccccc2)c1 (configuration not stated)
→ -6%	-11	-12	-2%	2	2.1
- Cc1cc(C(=O)COC(=O)c2ccc[nH]c2=O)c(C)n1-c1ccc(Br)cc1
→ -4%	-6	-17	0%	-1	0.6
- CS(=O)(=O)N(CC(=O)Nc1ccc(S(=O)(=O)N2CCCC2)cc1)c1ccccc1
→ 2%[15.4 µM]	-3	-13	0%	-1	0.6
- CCOc1ccc(N2CC(C(=O)Nc3ccccc3N3CCOCC3)CC2=O)cc1 (configuration not stated)
→ 7%	5	-1	5%	10	-0.6
- CC(C)[C@H](NS(=O)(=O)c1ccccc1)C(=O)OCC(=O)Nc1cccc(S(N)(=O)=O)c1
→ 9%[15.4 µM]	-5	3	15%	2	-8.0
- Cc1ccsc1C(=O)N(CC(C)C)c1c(N)n(Cc2ccccc2)c(=O)[nH]c1=O
→ ?	-11	11	12%	-9	-6.1
- CN(C)CCCN(C(=O)c1ccc(C(=O)c2ccccc2)cc1)c1nc2c(F)cccc2s1
→ ?	-37	-28	4%	-24	-4.9
- CCN(CC)CCN1C(=O)C(=O)/C(=C(/O)c2ccc(S(=O)(=O)N3CCOCC3)cc2)C1c1ccc(C(C)(C)C)cc1 (configuration not stated)
→ 4%[15.4 µM]	-5	-6	13%	-2	2.1
- O=C(O)C1C2CCC(O2)C1C(=O)Nc1cccc(Cl)c1 (configuration not stated)
→ -108%[inhibitor]	0	7	8%	4	0.1
- CCOc1cc(C)c(Cl)cc1S(=O)(=O)N(CC)CC
→ -5%	-3	7	-2%	5	2.8
- Cn1c(N)c(C(=O)COC(=O)c2cc(C3CC3)nc3ccccc23)c(=O)n(C)c1=O
→ -3%	-4	-2	-9%	4	3.5
- C[C@@H]1C(=O)O[C@H](C)[C@H]1C[C@@H](O)[C@](C)(O)C1CC[C@@]2(O)C3=CC(=O)[C@@H]4C[C@@H](O)[C@@H](O)C[C@]4(C)C3CC[C@]12C (some centres not stated)
→ nt	-4	3	7%	6	-4.0
- Cc1cccc(-c2c3c(=O)n(C)c(=O)n(C)c3cn2C(C)(C)C)c1
→ -11%	-9	10	-1%	0	-0.8
- Cc1ccc(S(=O)(=O)NC2=NCN(CCc3ccccc3)CN2)cc1
→ -34%[inhibitor]	-8	0	3%	4	-3.2
- COc1cccc(C(O)c2nc3ccccc3n2C)c1 (configuration not stated)
→ ?	-12	0	5%	-7	0.8
- COCCn1c(=O)[nH]c2cc(C(=O)N3CCN(c4cc(C)ccc4C)CC3)ccc2c1=O
→ 31%[15.4 µM]	-14	-3	?	-8	-1.7
- CN1C(=O)CC(N2CCN(Cc3ccc(Cl)cc3)CC2)C1=O (configuration not stated)
→ 0%	2	9	2%	1	-2.8
- O=C(Nc1ccc([N+](=O)[O-])cc1)c1cc(-c2ccccn2)nc2c(Cl)cccc12
→ 17%[15.4 µM]	-2	3	-21%	2	1.4
- O=C(c1ccccn1)N1CCN(S(=O)(=O)c2ccc(F)cc2)CC1
→ -7%[15.4 µM]	7	6	10%	-1	-0.2
- O=C(Cc1ccccc1)c1ccc(O)cc1
→ -18%	0	4	-4%	7	-1.7
- C(=N\Nc1ccccn1)/c1ccc2c(c1)OCCO2
→ 11%[15.4 µM]	-12	0	nt	-6	7.0
- COC(=O)NCC(C)OC(=O)Nc1cccc(Cl)c1 (configuration not stated)
→ 0%	-6	-1	0%	-2	-0.7
- COc1cc(/C=C(\CC(=O)O)c2nc3ccccc3s2)ccc1OCC(=O)Nc1ccccc1F
→ 4%	-11	?	-24%	-23	-1.5
- CCOC(=O)CSc1n[nH]c(=O)n1CCc1ccccc1
→ 2%	-6	-3	12%	2	-3.8
- O=C(c1ccccc1-c1nc(-c2ccccc2)no1)N1CCCC1
→ ?	-10	-9	-1%	-4	-2.9
- COCCn1c(SCC(=O)c2ccc3c(c2)OCCO3)nnc1-c1ccoc1C
→ 6%	-18	8	0%	-2	-0.4
- COc1ccc(OC)c(-n2c(-c3ccc(S(C)(=O)=O)cc3)cc(C=O)c2C)c1
→ -1%	-36	0	-2%	10	-4.1
- CCCCN(CC)CCNC(=O)c1cc2cc3ccc(Cl)cc3nc2o1
→ ?	-3	-3	12%	3	2.9
- COc1cccc(CN(CC(=O)NCC2CCCO2)C(=O)CNS(=O)(=O)c2ccccc2)c1 (configuration not stated)
→ -28%	-4	-4	1%	4	-0.5
- CCCOc1ccc(-c2c(C(=O)N/N=C/c3cccs3)nnn2-c2nonc2N)cc1
→ -39%[inhibitor]	4	0	?	-6	1.3
- CCOc1ccc(NC(=O)COC(=O)c2c(OC)cccc2OC)cc1
→ -2%	-11	18	-15%	0	-1.5
- O=C(CCCn1cc([N+](=O)[O-])cn1)NC1CCCCCC1
→ -1%[15.4 µM]	-2	10	-2%	-9	-2.0
